CtBP-E1A blk: qHTS Assay for Inhibitors of the CtBP/E1A Interaction | CtBP / adenovirus E1A interaction (AlphaScreen) | AlphaScreen GST-E1A/His-CtBP binding, 1536-well; stronger effect = lower value; control for the full effect not named in the record | activity change, % (test concentration not listed) | 0.49% of 340,000 active | AID 651724, 2012; in the data active means activity change below about -65%; inconclusive means about -30% to -65%; inactive means above about -30%; also: % is scaled to controls: 0 for no effect and ±100 for the full control effect; compound concentration not given in the record
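AlphaScreen with 125 nM GST-E1A and 125 nM His-CtBP (5X stocks) in Tris pH 8.0, 300 mM NaCl, BSA, Tween 20, TCEP. Compounds preincubated 2 h at 37 deg C, then glutathione donor/nickel acceptor beads added for 1 h at 37 deg C in dark.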
TRPML1 ag: qHTS for Agonists of the Human Mucolipin Transient Receptor Potential 1 (TRPML1); Mucolipin-1 (Homo sapiens), Q9GZU1; 0.12% of 410,000 active; activation, % (test concentration not listed); TRPML1-expressing cells, Ca2+ dye fluorescence, FDSS; host cell line not named in the record; reference of the full effect not given here; in the data active = activation above about 50%; inconclusive = about 30% to 50%; inactive = below about 30%; also: 0% is about no effect; the text of the record puts the active cut at 80%
Target sequence (Q9GZU1 whole entry, looked up): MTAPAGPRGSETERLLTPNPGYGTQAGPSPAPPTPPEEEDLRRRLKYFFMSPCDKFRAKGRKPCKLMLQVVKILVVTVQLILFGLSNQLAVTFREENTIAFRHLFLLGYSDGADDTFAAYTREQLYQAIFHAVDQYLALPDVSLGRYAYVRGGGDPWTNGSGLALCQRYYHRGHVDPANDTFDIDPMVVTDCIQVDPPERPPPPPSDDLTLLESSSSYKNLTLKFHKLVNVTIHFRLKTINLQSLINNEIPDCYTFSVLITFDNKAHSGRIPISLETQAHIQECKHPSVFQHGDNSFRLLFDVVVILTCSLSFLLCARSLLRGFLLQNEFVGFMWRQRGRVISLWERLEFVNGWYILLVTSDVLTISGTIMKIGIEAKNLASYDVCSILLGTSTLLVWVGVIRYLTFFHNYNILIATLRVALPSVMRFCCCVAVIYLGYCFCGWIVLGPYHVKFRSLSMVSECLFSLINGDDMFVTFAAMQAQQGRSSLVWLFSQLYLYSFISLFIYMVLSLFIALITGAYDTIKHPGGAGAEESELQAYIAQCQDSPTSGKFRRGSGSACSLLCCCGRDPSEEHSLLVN
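Calcium fluorescence on an FDSS kinetic reader gave the read-out. Tet-induced TRPML1-DL cells were plated overnight, dye-loaded (Ca8 with quencher, 45-90 min, room temperature, dark), then read 110 s after compound addition, and again 110 s after 4uM final 54-4 (EC80).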
TRPML1 inh: qHTS for Inhibitors of the Human Mucolipin Transient Receptor Potential 1 (TRPML1); TRPML1-inducible cells, Ca2+ dye fluorescence, FDSS; stronger effect = lower value; inhibition of EC80 agonist-evoked calcium signal; activity change, negative = inhibition, % (test concentration not listed); 0.02% of 390,000 active; AID 624415, 2012; in the data active means activity change below about -50%; inconclusive means about -30% to -50%; inactive means above about -30%;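 also: stimulus is agonist 54-4 at its EC80 concentration; % is scaled to controls: 0 for no effect and ±100 for the full control effect; compound concentration not given in the record; the text of the record puts the active cut at -80%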
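Calcium fluorescence in TRPML1-DL cells induced overnight with Tet: a 110 s read after compound pin addition, then a 110 s antagonist read after challenge with 54-4 at 4 uM final (EC80).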
D2 agonist: Beta-Arrestin HTS for Positive Allosteric Modulators of the Human D2 Dopamine Receptor: Agonists. D(2) dopamine receptor (Homo sapiens), P14416. DiscoveRx PathHunter D2 beta-arrestin, luminescence, 90 min; 100% = 57 uM dopamine signal. activation, % (no concentration beside the values). 0.084% of 360,000 active. AID 624465, 2012; in the data active = activation above about 40%; inconclusive = about 15% to 40%; inactive = below about 15%; also: compound concentration not given in the record; the text of the record calls up to 30% inactive
Target sequence (P14416 whole entry, looked up): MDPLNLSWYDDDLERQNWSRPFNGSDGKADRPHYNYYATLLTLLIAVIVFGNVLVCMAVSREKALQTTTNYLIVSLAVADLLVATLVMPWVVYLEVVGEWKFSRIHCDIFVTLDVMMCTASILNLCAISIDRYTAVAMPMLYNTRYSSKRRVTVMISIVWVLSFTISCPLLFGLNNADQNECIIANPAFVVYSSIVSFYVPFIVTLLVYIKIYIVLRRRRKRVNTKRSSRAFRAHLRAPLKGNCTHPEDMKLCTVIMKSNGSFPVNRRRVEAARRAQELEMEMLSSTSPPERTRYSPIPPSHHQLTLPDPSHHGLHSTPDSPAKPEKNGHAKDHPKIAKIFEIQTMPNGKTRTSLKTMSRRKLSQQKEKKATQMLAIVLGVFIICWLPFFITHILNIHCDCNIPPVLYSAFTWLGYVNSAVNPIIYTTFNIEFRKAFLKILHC
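Agonist mode: compounds alone added to overnight-plated D2 PathHunter cells for 90 min at 37 C, with 57 uM final dopamine (EC100) defining full response. Beta-arrestin recruitment detected by chemiluminescent reagent, read after 1 h at ambient temperature.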
Six1-Eya2 inh: qHTS Assay for Inhibitors of the Six1/Eya2 Interaction | activity change, % (test concentration not listed) | 0.56% of 360,000 active | AlphaScreen GST-Six1/His-Eya2 binding, biochemical; stronger effect = lower value; control for the full effect not named in the record | Homeobox protein SIX1 (Homo sapiens) + Protein phosphatase EYA2 (Homo sapiens), … | AID 651725, 2012; in the data active = activity change below about -65%; inconclusive = about -30% to -65%; inactive = above about -30%; also: % is scaled to controls: 0 for no effect and ±100 for the full control effect; compound concentration not given in the record
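Six1/Eya2 binding was read as AlphaScreen signal after compounds were pinned into GST-Six1 plus His-tagged Eya2 (5X stock 250/500 nM) in pH 8.0 Tris/NaCl/TCEP buffer, beads added, then incubated 1 h, 37 C, dark.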
PINK1 modulator: A Quantitative High throughput Screen to Identify Chemical Modulators of PINK1 Expression. PINK1 immunofluorescence, high-content cytometry, 24 h. Potency, µM (top dose mostly 76.6 µM), without a hit: top-dose activation (PINK1 increase), hits mostly activators. 0.2% of 410,000 active. AID 624263, 2012; active = well fitted activation curve with a large enough effect; inconclusive = small, poorly fitted or top-dose-only effect; inactive = flat fitted curve, though single readings scatter; cell line not stated here;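 also: potency is read from the fitted curve at half-maximal effect; % of control where 0% means no effect; nearly all actives have a fitted effect of over 65% in size; a mitochondrial uncoupler was the plate control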
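Cells are seeded, rested 12 hours, then given compound at five concentrations or DMSO for 24 hours. After fixation, blocking and antibody staining, PINK1 amount and mitochondrial localization are scored; CCCP serves as control.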
Numbers without * were called inactive; ? = inconclusive; . = no result given; & = joins results of further samples; [ ] = remark or other dose. Compounds were not picked by outcome; 1% or so of the library scored in one or more.

SMILES | CtBP-E1A blk | TRPML1 ag | TRPML1 inh | D2 agonist | Six1-Eya2 inh | PINK1 modulator
O=C(Nc1ccc(O)c2c(=O)cc(-c3ccccc3Cl)oc12)c1cccs1 | -2 | 2.2&-1.1 | 27&4 | -0.1 | -3 | 1.8%
C=CCNCC(=O)Nc1ccccc1SCC(=O)Nc1ccsc1C(=O)OC | 1 | 2.3 | -9 | 0.7 | 13 | -1.7%
COc1ccc(S(=O)(=O)N2CCN(C(=O)c3cc(C)oc3C)CC2)cc1OC | 12 | -0.2 | -1 | 1.1 | 8 | 4.2%
CC1=CN2C(=N)/C(=C/c3ccco3)C(=O)N=C2S1 | -23 | 0.3 | -4 | -7.5 | -23 | -0.4%
CCOc1ccc(N/C(SC)=C(/C#N)C(N)=O)cc1 | 1 | 0.6 | 17 | -1.4 | 1 | 3.2%[38.3 µM]
COCCn1c(SCC(=O)Nc2cc(C)on2)nc2c([nH]c3ccccc32)c1=O | 3 | -0.4 | 10 | -3.3 | 0 | 6.5%
COC(=O)CC(N)c1ccc(OC)c2ccccc12 (stereo unspecified) | 5 | 0.7 | -23 | -2.4 | -2 | -0.3%
Cc1ccc(C(=O)Nc2nnc(C3=COCCO3)o2)cc1C | -21 | -0.5 | 59 | -4.2 | ? | 2.4%
COc1ccccc1CC1CC(=O)N(c2ccccc2)C1=O (stereo unspecified) | 11 | 0.7 | 23 | -1.8 | -2 | 0.9%
Nc1c(C(=O)Nc2ccc(Cl)cc2)sc2nc(N3CCOCC3)c3c(c12)CCCC3 | . | 0.4 | 1 | -7.1 | -4 | 3.8%
Cc1cc(SC(C)C(=O)NCC(=O)Nc2ccc(F)c(F)c2F)nc2ccccc12 (stereo unspecified) | 4 | -0.3 | -17 | -3.8 | 1 | 20%
C[C@@H]1CCCCO[C@@H](CN(C)Cc2ccc3c(c2)OCO3)[C@@H](C)CN([C@H](C)CO)C(=O)c2cc(N(C)C)ccc2O1 | 2 | -0.8 | -12 | -2.4 | -8 | 0.0%
Cc1ccc(OCCNC(=O)c2cccc(S(=O)(=O)N3CCN(C)CC3)c2)cc1 | . | -0.6 | -14 | -1.5 | 13 | 0.7%
O=C(O)CCC(=O)NNC(=O)c1ccc(Br)cc1 | -3 | 0.9 | -15 | 0.3 | 3 | 0.1%
CCN(CCn1cccn1)C(=O)CCc1nnc(C2(c3ccc(Cl)cc3)CCC2)o1 | -7 | -0.3 | 10 | 0.8 | -8 | -1.2%
CCCCC1(C)NC(=O)N(CC(=O)Nc2ccc(S(=O)(=O)N3CCOCC3)cc2)C1=O (stereo unspecified) | 0 | -0.6 | 49 | -2.9 | 0 | 1.1%
O=C(Nc1cccc([N+](=O)[O-])c1)c1ccccc1 | 5 | -0.9 | -4 | -2.9 | 1 | 0.2%
CC(C)Cn1c(-c2cc(Br)ccc2F)nc2c1c(=O)[nH]c(=O)n2CC(C)C | -2 | 3.4 | 30 | 1.8 | -3 | -0.6%
Cc1sc2ncn(CC(=O)N3CCCC(C)C3)c(=O)c2c1S(=O)(=O)N1CCCCC1 (stereo unspecified) | -12 | 0.4 | 35 | -6.2 | 28 | 3.2%
CN1C/C(=C/c2cccs2)C(=O)/C(=C\c2cccs2)C1 | -3 | 0.3 | -19 | 13 | -12 | 6.2%
Cc1ccn2cc(C(=O)N3CCCC(Nc4ccc(F)cc4)C3)nc2c1 (stereo unspecified) | 4 | -0.1 | 2 | -5.0 | -3 | 3.5%
Cc1ccsc1C(=O)N1CCCCCC1(C)C(=O)NCC(C)C (stereo unspecified) | 5 | -0.4 | . | -5.6 | 1 | 0.0%
COc1ccc(Br)cc1CN1CCCCCC1 | -21 | -0.4 | 3 | -2.5 | -2 | 2.4%
Cc1nc(-c2ccccc2)sc1CCNS(=O)(=O)c1ccc(Br)cc1 | . | 3.4 | -10 | . | . | -0.2%
C=CCOc1ccc(/C=N/NC(=O)CN2CCOCC2)cc1OCC | 6 | -0.4 | -8 | -0.2 | -10 | -0.7%
SMILES | CtBP-E1A blk | TRPML1 ag | TRPML1 inh | D2 agonist | Six1-Eya2 inh | PINK1 modulator
CC(C)c1ccc(NC(=O)C2CCN(S(=O)(=O)c3ccc(Br)s3)CC2)cc1 | . | 2.5 | 11 | . | . | 2.6%
Cc1ccc(C2=NN(CC(=O)NCCc3ccc(Cl)cc3)C(=O)CC2)cc1 | . | 0.6 | -22 | . | . | 0.9%
COc1ccccc1OCC(=O)N1CCCCCCC1 | 5 | -0.5 | -6 | -1.3 | 4 | 1.1%
O=C(CSc1nnnn1Cc1ccccc1)Nc1cccc(F)c1 | -5 | 0.1 | -13 | 1.5 | 2 | 3.0%
Cc1c(NC(=O)CS(=O)(=O)c2ccccc2)c(=O)n(-c2ccccc2)n1C | 5 | -0.4 | 25 | 1.7 | 4 | 1.2%
Cc1ccc(S(=O)(=O)N2CCCCC2)cc1NC(=O)CSc1nnc(C2CC2)n1N | -1 | 0.3 | -6 | -1.8 | -3 | 0.3%
Cc1ccc(CN2CCN(C3CCN(C(=O)c4ccccc4)CC3)C(=O)C2=O)cc1 | . | -0.7 | 10 | . | . | 2.8%
Nc1ccccc1-n1cccc1 | 1 | 0.9 | 21 | 1.2 | 3 | -2.6%
CCOC(=O)C(=CNc1ccc(N2CCOCC2)cc1)C(=O)OCC | . | 2.1 | -13 | 3.3 | 3 | -0.6%
COc1ccc(-c2oc3c(c2C#CC2(O)CCCCC2)C(OC)CCC3)cc1 (stereo unspecified) | 0 | -0.1 | . | . | 10 | 5.3%
CN(C)C(CNc1ncnc2sc3c(c12)CCCC3)c1ccco1 (stereo unspecified) | 1 | -1.4 | 32 | -8.2 | -6 | 0.1%
Cc1ccc(NC(=O)Nc2c(Cl)cccc2Cl)cn1 | . | 2.1 | -4 | -6.3 | -24 | 5.4%
COc1ccc(Cc2c(C3CCCCC3)nc3ccc(Br)cn23)c(C)c1 | -4 | 0.2 | . | -6.5 | 2 | 1.4%
O=C(c1ccc2c(=O)n(-c3ccccc3)c(=O)[nH]c2c1)N1CCN(c2ccc(F)cc2)CC1 | 1 | -0.4 | 9 | -2.5 | -2 | .
CC(C)(C)c1ccc(C(=O)NCc2nnc(SCC(=O)NC3CCCC3)o2)cc1 | 0 | 0.3 | -20 | -3.0 | 5 | -0.8%
COc1ccc(NC(=O)c2cc(-c3ccc4c(c3)OCO4)on2)c(OC)c1 | . | -0.6 | -22 | . | . | 2.4%
CCOc1cc(C(=O)N2CCn3c4c(c5cc(C)ccc53)CCCC42)cc(OCC)c1OCC (stereo unspecified) | . | 1.9 | 1 | . | . | -0.6%
C=C1CCN(C(Cc2ccccc2)C(=O)OC)S(=O)(=O)c2ccc(F)cc21 (stereo unspecified) | -2 | 2.8&-0.5 | 37&27 | -1.1 | 7 | 5.8%
Cc1cccc(N2C(=O)CC(N3CCN(c4ccccn4)CC3)C2=O)c1 (stereo unspecified) | 0 | -0.3 | 13 | -3.0 | 5 | 0.7%
Cc1ccc(C)c(NC(=O)CN2C(=O)C3CC=CCC3C2=O)c1 (stereo unspecified) | 3 | -0.7 | 23 | -3.4 | 5 | 2.2%
COc1cccc(Cn2nc(C(=O)O)c3ccccc3c2=O)c1 | -20 | 2.6 | 22 | -5.8 | -12 | -0.6%
O=C(CCC1CCN(Cc2ccccc2Cl)CC1)NC1CC1 | . | -0.4 | -8 | -2.1 | -2 | -0.9%
CCOC(=O)c1ccc(NC(=O)COc2ccc(CNC3CCCCC3)cc2OC)cc1 | -7 | 0.9 | 16 | -2.0 | 3 | 2.0%
O=C(c1ccccc1OC(F)F)N1CCN(S(=O)(=O)c2ccc3c(c2)OCCCO3)CC1 | -24 | 0.4 | -19 | 1.8 | -2 | -1.4%
Nc1nnc(CC2=CCCCC2)s1 | 5 | -0.3 | 5 | 0.0 | 0 | -3.6%[38.3 µM]
O=C(NCCO)c1ccc(-c2nnc(N3CCOCC3)c3ccccc23)cc1 | 1 | 0.1 | -17 | -3.4 | 3 | 0.0%
Cc1ccc(C)c(CN2CCCN(C(=O)Cn3ncc4c3-c3ccccc3OC4)C2)c1 | -1 | 1.1 | -21 | 5.5 | -10 | 1.6%

Shown with values under each structure: entries from further up.
Values in the order – CtBP-E1A blk, TRPML1 ag, TRPML1 inh, D2 agonist, Six1-Eya2 inh, PINK1 modulator
> CC(C)(C)c1ccc(C(=O)NCc2nnc(SCC(=O)NC3CCCC3)o2)cc1
    0, 0.3, -20, -3.0, 5, -0.8%
> COc1ccc(NC(=O)c2cc(-c3ccc4c(c3)OCO4)on2)c(OC)c1
    ., -0.6, -22, ., ., 2.4%
> CCOc1cc(C(=O)N2CCn3c4c(c5cc(C)ccc53)CCCC42)cc(OCC)c1OCC (stereo unspecified)
    ., 1.9, 1, ., ., -0.6%
> C=C1CCN(C(Cc2ccccc2)C(=O)OC)S(=O)(=O)c2ccc(F)cc21 (stereo unspecified)
    -2, 2.8&-0.5, 37&27, -1.1, 7, 5.8%
> Cc1cccc(N2C(=O)CC(N3CCN(c4ccccn4)CC3)C2=O)c1 (stereo unspecified)
    0, -0.3, 13, -3.0, 5, 0.7%
> Cc1ccc(C)c(NC(=O)CN2C(=O)C3CC=CCC3C2=O)c1 (stereo unspecified)
    3, -0.7, 23, -3.4, 5, 2.2%
> COc1cccc(Cn2nc(C(=O)O)c3ccccc3c2=O)c1
    -20, 2.6, 22, -5.8, -12, -0.6%
> O=C(CCC1CCN(Cc2ccccc2Cl)CC1)NC1CC1
    ., -0.4, -8, -2.1, -2, -0.9%
> CCOC(=O)c1ccc(NC(=O)COc2ccc(CNC3CCCCC3)cc2OC)cc1
    -7, 0.9, 16, -2.0, 3, 2.0%
> O=C(c1ccccc1OC(F)F)N1CCN(S(=O)(=O)c2ccc3c(c2)OCCCO3)CC1
    -24, 0.4, -19, 1.8, -2, -1.4%
> Nc1nnc(CC2=CCCCC2)s1
    5, -0.3, 5, 0.0, 0, -3.6%[38.3 µM]
> O=C(NCCO)c1ccc(-c2nnc(N3CCOCC3)c3ccccc23)cc1
    1, 0.1, -17, -3.4, 3, 0.0%
> Cc1ccc(C)c(CN2CCCN(C(=O)Cn3ncc4c3-c3ccccc3OC4)C2)c1
    -1, 1.1, -21, 5.5, -10, 1.6%
